# PV pol inh: inhibitors of poliovirus RNA polymerase binding and polymerization; AID 588519; poliovirus polymerase elongation, fluorescence polarization; active compounds read low; P03300; % elongation, % (compound at 16.7 µg/mL); actives 0.66% (n = 150,000); in the data active = % elongation below about 90%; note: some results filed as inactive read as strong as hits
# Target sequence (P03300 1749-2209 limits assumed): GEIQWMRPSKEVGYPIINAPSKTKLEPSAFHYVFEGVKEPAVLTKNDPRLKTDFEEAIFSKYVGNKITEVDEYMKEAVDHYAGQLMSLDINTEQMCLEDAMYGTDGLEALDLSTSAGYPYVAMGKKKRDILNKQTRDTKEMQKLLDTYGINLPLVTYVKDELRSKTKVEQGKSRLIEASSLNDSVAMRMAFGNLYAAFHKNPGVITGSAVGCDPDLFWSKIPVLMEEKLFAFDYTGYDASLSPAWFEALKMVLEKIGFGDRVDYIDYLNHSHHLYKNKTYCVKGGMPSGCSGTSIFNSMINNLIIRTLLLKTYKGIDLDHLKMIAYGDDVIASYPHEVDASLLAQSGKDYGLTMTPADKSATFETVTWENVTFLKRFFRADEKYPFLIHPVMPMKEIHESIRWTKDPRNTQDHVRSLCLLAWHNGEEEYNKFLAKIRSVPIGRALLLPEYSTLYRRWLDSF
# Mtb MenB inh: Mtb MenB enzyme inhibition. P9WNP5. MenB enzyme assay, absorbance read-out; some hits fall short of the stated cut. inhibition, %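 (about 12 µg/mL by stock and volumes)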. actives 0.43% (n = 100,000). AID 540299;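 active = mean of two replicates above 30%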;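 note: 0% = no compound and 100% = wells with inactive enzyme; the first replicate is given; strong numbers were not always called active; inactives centre near -10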
# MbtI inh: blocks the Mycobacterium tuberculosis siderophore enzyme MbtI; P9WFX0; purified MbtI enzyme, fluorescence intensity read-out; inhibition, %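 (about 17 µg/mL by stock and volumes)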; actives 0.89% (n = 100,000);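 active = above 50% in both replicates, above 80% if mildly self-fluorescent; inactive = the rest, strongly fluorescent compounds included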;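 note: 0% = mean of negative and 100% = mean of positive controls; one replicate is shown; some compounds called inactive have numbers as strong as hits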
# Target sequence (P9WFX0 whole entry, looked up): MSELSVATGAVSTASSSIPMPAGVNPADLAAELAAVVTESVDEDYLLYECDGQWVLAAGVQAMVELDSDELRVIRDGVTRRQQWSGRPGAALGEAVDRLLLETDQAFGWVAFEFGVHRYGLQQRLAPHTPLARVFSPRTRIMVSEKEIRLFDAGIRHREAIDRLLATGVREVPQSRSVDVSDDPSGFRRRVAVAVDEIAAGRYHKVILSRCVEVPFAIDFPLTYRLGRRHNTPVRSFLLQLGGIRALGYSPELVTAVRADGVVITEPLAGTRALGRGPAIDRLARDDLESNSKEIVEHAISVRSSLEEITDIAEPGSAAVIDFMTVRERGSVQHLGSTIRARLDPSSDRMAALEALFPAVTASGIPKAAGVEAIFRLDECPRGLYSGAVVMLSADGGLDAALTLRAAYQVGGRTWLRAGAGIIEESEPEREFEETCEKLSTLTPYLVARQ
# PV pol inh intensity: recorded beside PV pol inh, whose call it bears; % elongation; measured here: total intensity read-out; formula for this scale not given here;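 total fluorescence in place of polarization; lower means less elongation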
# The depositor's hits bear a star; nt = not tested or not shown.
SMILES,PV pol inh,PV pol inh intensity,Mtb MenB inh,MbtI inh
CC1(C)CC(CCc2nc(=S)[nH][nH]2)C(=O)O1 (stereo not given),102.0,105.0,-8.9,56.5
CCOC(=O)N1CCN(C(=O)c2cc(Nc3ccc(OC)cc3OC)nc3ccccc23)CC1,101.0,104.0,-5.2,13.9
O=C(/C=C/CC(=O)OC1CCCC1)OC1CCCC1,103.0,107.0,1.3,-8.1
CCC(Sc1nc2ncccc2[nH]1)C(=O)N(CC)c1cccc(C)c1 (stereo not given),105.0,110.0,-31.4,1.0
O=C(NCc1ccco1)C1CCN(S(=O)(=O)Cc2ccccc2)CC1,102.0,104.0,18.8,1.7
N#Cc1c[nH]c2ccc(N3C(=O)c4ccccc4C3=O)cc12,98.0,96.0,-3.1,-3.0
C=CCSc1nnc(NC(=O)c2oc3ccccc3c2C)s1,106.0,112.0,7.7,6.2
CC(C)NC(=O)CC1Sc2ccccc2NC1=O (stereo not given),104.0,100.0,-50.6,-5.8
COc1ccc(N=Cc2sc3ccccc3c2Cl)cc1,102.0,99.0,nt,4.9
CCC1CN=C(Nc2cccc(C)c2)S1 (stereo not given),100.0,103.0,nt,-6.6
CCOC(=O)c1c(C)[nH]c(C(=O)NCC(c2ccco2)N2CCCCC2)c1C (stereo not given),101.0,101.0,-5.1,-4.1
COc1ccc(C2=NN(C(=O)CCC(=O)O)C(c3ccccc3F)C2)cc1OC (stereo not given),106.0,102.0,-13.0,89.9
Cc1ccc(-n2c(C)cc(C(=O)CC#N)c2C)cc1C,107.0,105.0,-22.8,2.5
N#CCc1nc(-c2ccccc2)no1,118.0,118.0,-26.1,-10.1
CCOC(=O)c1c(N(C)C)ccc(C2C=CNC(=O)N2)c1C (stereo not given),101.0,104.0,-14.8,-2.5
O=S(=O)(c1ccc(Br)cc1)N1CCn2c(nc3ccccc32)C1,99.0,103.0,4.0,-1.5
NC(=O)COc1ccc2ccc(=O)oc2c1,99.0,101.0,-8.8,-64.2
COCCn1c(SCc2nc3ccccc3nc2C)nc2ccccc21,103.0,109.0,7.4,-1.3
CSc1cccc(NC(=O)CCS(=O)(=O)c2ccc3nc(C)sc3c2)c1,103.0,107.0,-7.0,-0.2
COc1ccc(-n2c(SCC(=O)N(C)Cc3cccs3)nc3ccccc32)cc1,107.0,115.0,-53.4,1.8
CCCCn1cnc2cc(NCc3ccc(C)cc3)ccc21,97.0,101.0,-25.4,107.8
CC(C)=NNC(=S)Nc1ccc(Cl)cc1,105.0,110.0,-76.2,2.1
C[N+](C)(C)CC(=O)[O-],100.0,98.0,-5.6,-12.4
CCOC(=O)N1CCC(NC(=O)CN2C(=O)COc3ccc(C(C)(C)C)cc32)CC1,100.0,102.0,-27.0,12.4

# Shown field by field: entries from further up
> CCOC(=O)c1c(N(C)C)ccc(C2C=CNC(=O)N2)c1C (stereo not given)
  PV pol inh: 101.0 | PV pol inh intensity: 104.0 | Mtb MenB inh: -14.8 | MbtI inh: -2.5

> O=S(=O)(c1ccc(Br)cc1)N1CCn2c(nc3ccccc32)C1
  PV pol inh: 99.0 | PV pol inh intensity: 103.0 | Mtb MenB inh: 4.0 | MbtI inh: -1.5

> NC(=O)COc1ccc2ccc(=O)oc2c1
  PV pol inh: 99.0 | PV pol inh intensity: 101.0 | Mtb MenB inh: -8.8 | MbtI inh: -64.2

> COCCn1c(SCc2nc3ccccc3nc2C)nc2ccccc21
  PV pol inh: 103.0 | PV pol inh intensity: 109.0 | Mtb MenB inh: 7.4 | MbtI inh: -1.3

# Other records:
SMILES,PV pol inh,PV pol inh intensity,Mtb MenB inh,MbtI inh
CCOC(=O)C1=C(C)NC(=O)NC1c1c(O)ccc2ccccc12 (stereo not given),101.0,101.0,29.3,6.7
CCCC1CCC(c2ccc(/C(N)=N/O)cc2)CC1 (stereo not given),111.0,113.0,-8.5,nt
COc1ccc(C(=O)C[n+]2ccc3c(c2)nnn3C)cc1,102.0,107.0,-12.0,1.0
CC(C)C(SCc1ccccc1)C(=O)NC(N)=O (stereo not given),nt,nt,5.4,16.9
CCOc1ncccc1C(=O)N(C)CC1COc2ccccc2O1 (stereo not given),nt,nt,-18.2,-5.4
CCn1cc(-c2cc(C(=O)O)on2)cn1,101.0,103.0,-26.0,2.2
COCCCn1c(=O)[nH]c(=O)c2c(N)c(C(=O)c3ccccc3)sc21,97.0,98.0,2.7,-19.4
CN(C(=O)COC(=O)Cn1nnc(-c2ccccc2)n1)C1CCCCC1,104.0,102.0,-4.3,2.4
O=C(CN1C(=O)c2ccccc2C1=O)c1ccc(C(F)(F)F)cc1,102.0,105.0,-35.6,-12.2
Cc1cc(C)c(N(CC(O)Cn2cc(/C=N/O)c3ccccc32)S(C)(=O)=O)c(C)c1 (stereo not given),106.0,104.0,-13.0,8.8
O=C(COc1ccccc1)Nc1ccc(S(=O)(=O)Nc2ncccn2)cc1,105.0,113.0,-9.7,nt
Cc1cc(=O)[nH]c(SCC(=O)c2cccs2)n1,102.0,105.0,-1.1,15.8

# 3 successive entries out of the list so far, for reference:
SMILES,PV pol inh,PV pol inh intensity,Mtb MenB inh,MbtI inh
COCCCn1c(=O)[nH]c(=O)c2c(N)c(C(=O)c3ccccc3)sc21,97.0,98.0,2.7,-19.4
CN(C(=O)COC(=O)Cn1nnc(-c2ccccc2)n1)C1CCCCC1,104.0,102.0,-4.3,2.4
O=C(CN1C(=O)c2ccccc2C1=O)c1ccc(C(F)(F)F)cc1,102.0,105.0,-35.6,-12.2

# (list continues)
SMILES,PV pol inh,PV pol inh intensity,Mtb MenB inh,MbtI inh
O=C(c1ccc2c(c1)N(Cc1ccc(F)cc1)C(=O)c1ccccc1S2=O)N1CCN(c2ccccc2)CC1 (stereo not given),101.0,102.0,-5.4,-3.3
CSc1nc(CSc2nnc(-c3ccccc3)n2-c2ccc(Cl)cc2)cc(=O)[nH]1,104.0,108.0,-33.5,6.8
O=S(=O)(NC1CCCCCC1)c1ccccc1,103.0,102.0,-36.8,8.9
COc1ccc(-c2nn3c(C)nnc3s2)cc1OC,102.0,102.0,3.3,-284.2
CCN(CC)S(=O)(=O)c1cccc(C(=O)OCN2C(=O)c3ccccc3C2=O)c1,102.0,101.0,-1.8,21.4
COc1ccc(-c2c3c(=O)n(C)c(=O)n(C)c3c3n2C(C)(C)COC3)cc1,99.0,101.0,-10.0,-11.7
Cc1ccc(S(=O)(=O)NC(=O)N(C)c2ccccc2)cc1,104.0,108.0,1.7,2.5
Cn1c(Cc2nnc3n2-c2ccccc2SC3)nc2ccccc21,100.0,105.0,-1.2,5.9
COn1c(=O)c(-c2ccc(I)cc2)[n+]([O-])c2ccccc21,102.0,101.0,-6.5,16.9
CN(Cc1ccccc1)S(=O)(=O)c1ccc(F)cc1,100.0,104.0,-17.9,-12.8
CCN(CC)c1nc2c3c(nc4c(c3c1C#N)CC(=O)N4c1cc(Cl)cc(Cl)c1)NC(C)=N2,119.0,127.0,-19.8,-27.9
CC(O)C(Nc1ncnc2ccccc12)C(=O)O (stereo not given),103.0,104.0,-22.0,-1.9
Cc1c(C(=O)NC2=NCCS2)sc2nc3n(c(=O)c12)CCCCC3,103.0,102.0,-25.8,101.2
Cn1c(=O)c(C(=O)CN2CCCCC2)c(N)n(Cc2ccccc2)c1=O,105.0,106.0,4.7,-42.3
O=c1[nH]/c(=C/c2ccco2)c(=O)[nH]/c1=C\c1ccco1,103.0,104.0,-10.6,nt
COc1ccc2oc(C(=O)N(C)Cc3nc4ccccc4c(=O)[nH]3)c(C)c2c1,102.0,105.0,-2.4,124.7
COC(=O)CC(=O)CSc1nc(C)cc(C)c1C#N,103.0,103.0,-35.8,87.4
COc1cccc(C(=O)NCCc2cc3ccc(OC)cc3[nH]c2=O)c1,102.0,105.0,-8.7,18.2
N#CC1=C(N)C(C#N)(C#N)C(c2cccs2)C=C1C1CC1 (stereo not given),95.0,136.0,-55.2,25.8
O=C(CSc1nc2c([nH]c3ccccc32)c(=O)n1-c1ccccc1)Nc1ccccc1,97.0,96.0,-49.8,-5.2
Cc1cn(C2OC(COC(=O)c3ccccc3)C(O)C2O)c(=O)[nH]c1=O (stereo not given),104.0,97.0,-17.3,11.9
COC(=O)c1cc(CSc2cccc[n+]2[O-])oc1C,105.0,97.0,6.7,21.1
COC(=O)c1cc2nc(C)cc(C(F)(F)F)n2n1,103.0,102.0,6.0,12.5
O=C(CSc1nc2ccccc2o1)NCc1ccc(F)cc1,103.0,109.0,-8.7,-3.1
CC(=O)Nc1ccc(C(=O)OCC(N)=O)cc1,103.0,111.0,14.4,-1.0
O=C(COC(=O)c1ccc(Oc2ccccc2)cc1)Nc1ncccn1,99.0,99.0,-38.3,17.1
O=C(CSc1nnc(CNC(=O)c2ccccc2F)o1)Nc1ccc(F)cc1F,101.0,105.0,-8.0,-0.8
CCCCN(Cc1nnc(-c2ccccc2)o1)c1ccccc1,101.0,102.0,-8.0,-0.4
Cc1cccc(NC(=O)Cn2c(=O)n(CCCC(=O)NCc3ccc4c(c3)OCO4)c(=O)c3ccccc32)c1,99.0,103.0,6.4,-3.2
COC(=O)c1cc(S(=O)(=O)Nc2nn(C)c3cccc(F)c23)oc1C,102.0,94.0,-23.2,-5.0
Cc1cc2cc(CNS(=O)(=O)c3ccccc3)ccc2n1C,101.0,103.0,-11.4,-4.7
CN(C)/C=C/C(=O)c1ccco1,97.0,92.0,-8.5,4.0
CC(NCCCO)c1ccccn1 (stereo not given),103.0,105.0,-18.1,-4.7
CCCCN(C)c1nnc(NC(=O)Nc2cccc(C)c2)s1,107.0,103.0,-30.7,1.4
COCc1[nH]nc2c1C(c1ccc(OCC(N)=O)c(OC)c1)C(C#N)=C(N)O2 (stereo not given),107.0,113.0,14.1,nt
CCOC(=O)c1cnc(N2CCCCC2)nc1C1CCN(C(=O)OC(C)(C)C)CC1,100.0,102.0,13.0,0.0

# Single records (already shown). Order of screens: PV pol inh | PV pol inh intensity | Mtb MenB inh | MbtI inh
# O=C(COC(=O)c1ccc(Oc2ccccc2)cc1)Nc1ncccn1 as listed: 99.0 | 99.0 | -38.3 | 17.1
# Cc1cc2cc(CNS(=O)(=O)c3ccccc3)ccc2n1C as listed: 101.0 | 103.0 | -11.4 | -4.7

# Further entries.
SMILES,PV pol inh,PV pol inh intensity,Mtb MenB inh,MbtI inh
O=C(COc1ccc2oc(-c3ccco3)cc(=O)c2c1)NC1CCCCC1,99.0,100.0,1.9,25.5
CCOc1ccc2cc(-c3ccccn3)c(=N)oc2c1,102.0,102.0,nt,-14.8
CNc1c(NC(=O)Nc2cc(C)cc(C)c2)c(=O)oc2ccccc12,101.0,104.0,5.2,2.9
NC(=O)c1oc2ccccc2c1NC(=O)CSc1ccc(F)cc1,106.0,108.0,-37.7,18.7
COc1ccc(NC(=O)c2c3c(nc4ccccc24)CCCC3)cc1,104.0,107.0,nt,-12.6
CCc1cccc2c(C3=Nn4cnnc4SC3c3ccccc3)c[nH]c12 (stereo not given),100.0,98.0,-25.0,7.1
O=C(/C=C/c1cccs1)OCC(=O)N1CCN(C(=O)c2ccco2)CC1,107.0,114.0,-10.7,6.0
C=Cn1ccnc1P(=S)(c1nccn1C=C)C1CCCCC1,108.0,108.0,-7.5,9.4
CC(C)Nc1nc(NC(N)=O)nc(NC(C)C)n1,102.0,100.0,62.0*,2.8
CCN(CC)c1ccc(C2C(C#N)=C(N)N(c3ccccc3Cl)C3=C2C(=O)CCC3)cc1 (stereo not given),102.0,104.0,-4.5,7.3
Nc1ccc(-c2nc3cccnc3s2)cc1,100.0,102.0,-6.0,111.4
O=S(=O)(Nc1cccc(C(F)(F)F)c1)c1ccccc1,99.0,94.0,3.4,nt
Cn1cccc1/C=C1\CC(C(C)(C)C)C/C(=C\c2cccn2C)C1=O (stereo not given),71.0,199.0,-32.9,1.2
COc1ccc(/C=C2\Oc3ccccc3N(CC(=O)N3CCC(C(N)=O)CC3)C2=O)cc1Br,102.0,103.0,-13.6,17.2
CC(C)CSc1n[nH]c(N)n1,96.0,102.0,10.7,-11.2
N#Cc1cccc(NC(=O)NCC2CCCC(CNC(=O)Nc3cccc(C#N)c3)C2)c1 (stereo not given),99.0,102.0,-8.1,2.7
C=CCn1c(Cc2ccc(O)c(Cl)c2)n[nH]c1=S,101.0,96.0,-17.7,93.0*
O=C1N(Cc2ccccc2F)c2ccccc2C12OCCS2 (stereo not given),99.0,103.0,7.4,2.9
CCOC(=O)N1CCC(N=C2NS(=O)(=O)C(c3ccc(C)cc3)=C2C)CC1,100.0,101.0,16.5,21.2
COc1cccc(-c2nnc(SCC(=O)N3CCCC(C)C3)o2)c1 (stereo not given),97.0,94.0,-17.7,-1.8
CCOC(=O)c1c(-c2cccs2)csc1NC(=O)CN1CC(C)OC(C)C1 (stereo not given),104.0,112.0,-13.4,23.2
CCN(CC)S(=O)(=O)c1ccc2nc(CSc3n[nH]c(N)n3)[nH]c2c1,102.0,109.0,-19.0,-8.7
O=C(NC1CC1)c1sc2ccccc2c1Cl,105.0,106.0,-7.5,nt
COc1ccc(-c2nn(-c3ccccc3)cc2C(=O)N(C)C)cc1OC,101.0,95.0,1.0,2.1
O=C(O)c1ccc(NN=C2CCCCCC2)cc1,94.0,97.0,9.1,36.0
NS(=O)(=O)c1ccc(C(=O)OCc2ccccc2)cc1,103.0,102.0,-20.8,-1.6
CCN1CCc2c(sc3[nH]c(=S)[nH]c(=S)c23)C1,92.0,88.0,-18.7,nt
OCc1sc2ccccc2c1Cl,100.0,103.0,7.3,3.5
O=C(CNC(=S)N1CC2CC(C1)c1cccc(=O)n1C2)NCc1ccccc1 (stereo not given),100.0,104.0,-1.2,-7.0
CCNc1nc2[nH]c(=O)c3c(c2s1)OC(N)=C(C#N)C3c1cccs1 (stereo not given),103.0,106.0,3.1,0.2

# Screens deposited in PubChem by ICCB-Longwood Screening Facility, Harvard Medical School.
